Screens as filed in PubChem.
VACV E9 pol inh = vaccinia E9 polymerase processive synthesis inhibitors, primary screen, biochemical, absorbance; normalized absorbance, % (no concentration beside the values); Vaccinia virus DNA polymerase (E9) processive complex; actives 0.94% (n = 46,000); in vitro processive DNA synthesis, absorbance read-out; stronger effect = lower value; some inactives read as strong as hits;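 active = replicate mean up to 90% and picked by the depositor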;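 also: 100% = median of the test wells of a plate; 100 nL library stock went into each well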
Numbers without * were called inactive.

SMILES	VACV E9 pol inh
N#Cc1c(-c2ccccc2)nc(SCC(=O)N2CCCc3ccccc32)[nH]c1=O	99
NCCC12CC3CC(C1)CC(C(=O)O)(C3)C2	99
COc1ccc(CN/C(C)=C/c2nsc(Nc3ccc(F)cc3)n2)cc1	102
CCN(CC)c1nc2ccccc2n2cnnc12	104
Cc1ccc(C)c(S(=O)(=O)Nc2ccc(O)c(Cl)c2)c1	99
CO[C@H]1[C@H](O)[C@H](O[C@H]2CC[C@]3(C)C4CC[C@]5(C)C(C6=CC(=O)OC6)CC[C@]5(O)C4CC[C@@H]3C2)O[C@@H](C)[C@@H]1O (stereo partly specified)	100
COC(=O)C1=C(C)N(C(C)C)C(=O)/C1=C\c1ccc(C(=O)O)cc1	100
O=C(CC(c1ccccc1)c1ccccc1)Nc1nn[nH]n1	101
CCCSc1nc2c(cnn2-c2ccccc2)c(=O)[nH]1	82
O=C(O)c1c2ccccc2cc2ccccc12	100
OC(CSc1cccc2cccnc12)Cn1c2ccccc2c2ccccc21 (stereo unspecified)	112
CN(Cc1nc2ccccc2n1C)S(=O)(=O)c1ccc(Cl)cc1	99
COC(=O)C(CC(=O)c1ccc(Br)cc1)(Cc1ccc(Br)cc1)C(=O)OC	100
CC(C)(C)NC(=S)NC1CC1	107
CC1=Nc2ccccc2NC(=O)C1Cc1ccccc1 (stereo unspecified)	103
O=C(O)CCCC(=O)Nc1nc2ccccc2s1	97
Brc1ccc(OCc2nnc3n2CCCCC3)cc1	99
O=C(Nc1cccc2c1CCCC2)N1c2ccccc2Sc2ccccc21	100
COc1cc(O)oc1C=Nc1ccccc1	74
Cc1cc(Cl)cc(Cl)c1CN(C)C(=O)c1cnc(Oc2ccc(Cl)cc2)cc1C(F)(F)F	98
COC(=O)C1=C(C)N(Cc2ccc(OC)cc2)C(=O)/C1=C\c1ccco1	98
COc1ccc(C(=O)Cn2nc(CNc3ccc(Br)cc3)[n+]3c2CCCCC3)cc1	103
CCN(CC)S(=O)(=O)c1ccc(Cl)c(C(=O)NCC(C)C)c1	100
CN(C)c1ccc(/C=C/C=N/c2sccc2C#N)cc1	109
O=C(COC(=O)/C=C/c1cn(-c2ccccc2)nc1-c1ccccc1)NC1CC1	102
CCOC(=O)C1=C(C)NC(SC)=C(C#N)C1CC(C)C (stereo unspecified)	97
O=C(c1ccccc1)C(O)c1c[nH]c2ccccc12 (stereo unspecified)	96
NC(=O)c1ccc(N2CCN(C(c3ccccc3)c3ccccc3)CC2)nc1	100
O=C(NC1=NCCS1)c1cc2c(s1)CCC2	105
CSc1nc(N/C=C(\C#N)S(=O)(=O)c2ccccc2Cl)nc(C2CC2)n1	78
O=S(=O)(NCc1ccc2c(c1)OCO2)c1ccccc1	100
COc1ccc(/C=C/C(=O)NCCn2ccc3ccccc32)cc1OC	91
COC(=O)c1c(C(=O)OC)c2n(c1C)CSC2	105
COc1ccc(C2C3=C(Nc4[nH]c(=O)[nH]c(=O)c42)c2ccccc2C3=O)cc1 (stereo unspecified)	82
c1ccc(C2OCc3nonc3CO2)cc1	100
Cc1cccc(C)c1NC(=O)C1c2cccc[n+]2CC(=O)N1C (stereo unspecified)	104
CCOC(=O)c1ccc2nc(NC(=O)COC(=O)c3ccnn3C)sc2c1	97
O=C(COC(=O)c1cncc(Br)c1)NC1CC1	89
COc1cc2c(cc1OC)CN(Cc1ccc(C)o1)CC2	107
C=C1C(C(=O)Nc2ccc3c(c2)OCCO3)C1C(=O)Nc1ccc2c(c1)OCCO2 (stereo unspecified)	100
O=S1(=O)CCN(Cc2cc(F)cc3c2OCOC3)CC1	110
COc1ccc(-c2csc3ncc(S(=O)(=O)c4ccc(F)c(Cl)c4)c(=O)n23)cc1OC	95
CC(NC(=O)CC1CCCCC1)c1ccccc1 (stereo unspecified)	100
Nc1ccccc1C(=O)c1ccccc1C(=O)O	96
c1ccc(SCc2nc3ccccc3[nH]2)cc1	76

Fetched one by one from the entries so far (8):
SMILES	VACV E9 pol inh
c1ccc(SCc2nc3ccccc3[nH]2)cc1	76
COc1ccc(/C=C/C(=O)NCCn2ccc3ccccc32)cc1OC	91
Cc1cccc(C)c1NC(=O)C1c2cccc[n+]2CC(=O)N1C (stereo unspecified)	104
COc1ccc(C2C3=C(Nc4[nH]c(=O)[nH]c(=O)c42)c2ccccc2C3=O)cc1 (stereo unspecified)	82
c1ccc(C2OCc3nonc3CO2)cc1	100
COc1ccc(-c2csc3ncc(S(=O)(=O)c4ccc(F)c(Cl)c4)c(=O)n23)cc1OC	95
CCOC(=O)c1ccc2nc(NC(=O)COC(=O)c3ccnn3C)sc2c1	97
COc1cc2c(cc1OC)CN(Cc1ccc(C)o1)CC2	107

More records
SMILES	VACV E9 pol inh
O=C(CCn1c(=O)sc2ccccc21)NCc1ccccc1	101
CCOC(=O)c1cc(CC)sc1NC(=O)C#Cc1ccccc1	98
O=C(NCc1ccncc1)c1cc(C(=O)C2CC2)c[nH]1	102
CNC(=O)Cc1coc2ccc3ccccc3c12	83
Cn1c(-c2ccccc2)nn(CN2CCC(C(N)=O)CC2)c1=S	100
COc1ccc(C2=C(C)C(c3cccs3)c3ccccc3O2)cc1 (stereo unspecified)	100
COc1ccc2c(c1)CCc1cn3ncc(C#N)c3nc1-2	92
Nc1cc(-c2ccccc2)n(C(=O)Nc2ccc(Cl)cc2)n1	97
CCCC(C)C1(CC)C(=O)N=C(S)NC1=O (stereo unspecified)	91
CC(NC(=O)CSC1=NCCS1)c1ccccc1 (stereo unspecified)	101
O=C(/C=C\c1cn(-c2ccccc2)nc1-c1cccs1)N1CCCCC1	88
Cc1nn2c3c(cnc2c1-c1ccccc1)C(=O)CC(C)(C)C3	96
Cc1onc(-c2ccccc2Cl)c1C(=O)NC(=S)NCc1ccco1	100
CC(=O)Oc1cc(C)c(OC(C)=O)c(C)c1C	88
Cc1ccc(C(=O)N2N=C3c4ccccc4S(=O)(=O)N3C2N2CCCCC2)cc1 (stereo unspecified)	100
O=C(CN1C(=O)c2ccccc2C1=O)Nc1nccs1	100
COc1ccc(C2C3(C#N)C(N)=NC4(OCCO4)C23C#N)cc1 (stereo unspecified)	100
C=CCn1c(=S)sc2c(=O)[nH]c(C)nc21	104
CC(C)c1nc2sc3c(NCC4CCCO4)ncnc3c2c2c1CCCC2 (stereo unspecified)	100
CN(C)C=NC1=C(c2ccccc2)C(=O)c2ccccc21	115
N#CCSc1nc2c(sc3ccccc32)c(=O)n1CCCN1CCOCC1	98
Cc1cccc(OCCOc2ccc(Br)cc2/C=C2\SC(=S)NC2=O)c1	100
COc1cccc(NC(=O)c2c(Cl)nc3sccn23)c1	96
COc1ccc(CC2NCCc3cc(OC)c(OC)cc32)cc1OC (stereo unspecified)	100
O=C(Nc1ccc(N2CCN(Cc3ccccc3)CC2)cc1)Nc1ccc(C(F)(F)F)cc1	104
CC(CN1CCCC1)OC(=O)c1ccccc1Cl (stereo unspecified)	101
Cc1ccc(OCc2nn(CN3CCC4(CC3)OCCO4)c(=S)n2C)cc1C	96
CCCN(CCC)c1ccc(/C=N/n2cnnc2)cc1	101
O=C(O)CCC(=O)Nc1ccc(Cc2ccncc2)cc1	99
O=c1[nH]c(=O)n(Cc2ccco2)c2c1C(C(F)(F)F)(C(F)(F)F)N=C(CCC1CCCCC1)N2	100

Nothing new here: an excerpt of the list.
SMILES	VACV E9 pol inh
CC(C)c1nc2sc3c(NCC4CCCO4)ncnc3c2c2c1CCCC2 (stereo unspecified)	100
CN(C)C=NC1=C(c2ccccc2)C(=O)c2ccccc21	115
N#CCSc1nc2c(sc3ccccc32)c(=O)n1CCCN1CCOCC1	98
Cc1cccc(OCCOc2ccc(Br)cc2/C=C2\SC(=S)NC2=O)c1	100

Next entries
SMILES	VACV E9 pol inh
CC(NC(=O)C(C)(C)C)c1nc2ccccc2n1C (stereo unspecified)	97
CN(C)S(=O)(=O)Nc1ccc(C(=O)O)cc1	98
CN1C(=O)c2ccccc2C(C(=O)NCCCN2CCCCC2)C1c1cccs1 (stereo unspecified)	97
Cc1ccccc1NC(=O)COC(=O)c1cccc2ccccc12	102
O=C(CCCN1C(=O)CSc2ncccc21)NCc1ccccc1	102
O=C(Nc1nc2c(F)cccc2s1)c1ccco1	96
COc1ccccc1NC(=O)c1c(NCc2sccc2C)sc2c1CCCC2	109
Cc1cc(-c2nn(C)c(=O)c3ccccc23)cc(C)c1OCC(=O)NN	106
O=C(CCCOc1ccc(Cl)cc1Cl)Nc1nccs1	101
NCc1cn[nH]c1-c1ccccc1	100
COc1ccc(N=Cc2oc(O)c3ccccc23)cc1	81
COc1ccc(OCC(=O)N2c3ccccc3Sc3ccccc32)cc1	100
COC(=O)C(NC(=O)c1cn(C)nc1C(F)(F)F)c1ccccc1 (stereo unspecified)	101
CCN1CCN(C(=O)CC#N)CC1	105
Cc1ccc(-n2cnc3cc(C(=O)NCC4CCCO4)ccc32)cc1Cl (stereo unspecified)	99
Cc1ccc(C(=O)c2coc3ccc(O)c(CN(C)C)c23)cc1	100
CC(CCc1ccccc1)NC(=O)c1n[nH]c2c1CCCC2 (stereo unspecified)	104
CCc1ccc(Sc2cc(C(=O)NCC3CCCO3)c3ccccc3n2)cc1 (stereo unspecified)	96
COc1ccc(CC(=O)N=c2sc3cc(Cl)ccc3n2C)cc1	90
Cc1ccc2c(Cl)cc(Cl)c(OCC(=O)NCc3ccco3)c2n1	98
O=C(CSc1nc2ccccc2c(=O)n1CCc1ccccc1)NCCc1ccccc1	98
CC(CN1CCCCC1)OC(=O)c1cccs1 (stereo unspecified)	101
CC(C)C(O)P(=O)(OCc1ccccc1)c1ccc(N(C)C)cc1 (stereo unspecified)	101
NC(=O)Cn1nc(C(F)(F)F)c2c1CCCC2	105
c1ccc(C2=Nc3ccccc3C(c3ccncc3)=NN2)cc1	100
O=C(NCc1ccco1)c1sc2ccccc2c1Cl	107
Cc1cc(NC2c3ncccc3C(=O)N2C2CCCCC2)ccc1Br (stereo unspecified)	105
N#CC1=CS/C(=C2\C(=O)NN(c3ccccc3)C2=O)SC1=N	100
CC1(C)Cc2c(C#N)c3nc(-c4ccccc4)cnn3c2CO1	101
CC(=O)N1CCc2cc(NC(=S)Nc3ccccc3Cl)ccc21	83
CC1(C)C(C(=O)Nc2nccs2)C1(C)C	100
CCOc1ccc2nc(N3CCCC(C(=O)NC)C3)sc2c1 (stereo unspecified)	103
CCOC(=O)C1=C(SC)NC(=O)C(C)(C#N)C12CCCCC2 (stereo unspecified)	102
COc1ccc2c(c1)c(C(=O)CNc1nc(C)cs1)c(C)n2C	99
CN(C1CCCCC1)S(=O)(=O)c1ccc(CCN2C(=O)c3cccnc3C2=O)cc1	93
COc1cccc(-c2cc(C(=O)N3CCOCC3)on2)c1	101
Cc1cc(=O)[nH]c(C(C)C)n1	100
Cc1noc(C)c1CSc1ccc2ccccc2n1	99
CN(C)S(=O)(=O)c1ccc(C(=O)NCCn2ccc3ccccc32)cc1	95
O=S(=O)(NCc1ccc(Br)cc1)c1ccc(F)cc1	100
CCOC(=O)C1=C(C)N(c2nonc2NC(C)=O)C(N)=C(C#N)C1c1ccc(Br)cc1 (stereo unspecified)	98
Cc1nc(Cl)c2sc(=S)n(-c3ccccc3)c2n1	101
CCOC(=O)N1CCN(CC(O)COc2ccc3ccccc3c2)CC1 (stereo unspecified)	100
CC(NC(=O)C(Cc1ccccc1)n1cccc1)c1ccccc1 (stereo unspecified)	105
COc1ccc(Nc2nc(NCCN3CCOCC3)nc3c2cnn3C)cc1Cl	95
O=C(Cn1ncc2ccccc21)N1CCN(c2ccccc2)CC1	101
O=C1CN(C(=O)c2ccco2)c2ccccc2N1	100
Cc1ccc(CNS(=O)(=O)c2ccc3oc(C(=O)O)c(C)c3c2)cc1	104
O=C1CC(Nc2ccc(N3CCOCC3)cc2)C(=O)N1c1ccccc1C(F)(F)F (stereo unspecified)	95
CC(C)OCC(O)CN1CCN(Cc2ccccc2)CC1 (stereo unspecified)	113
CCCCC(=O)Nc1sc2c(c1C#N)CCCC2	96
CCN(Cc1cccc(Cl)c1)C(=O)c1cnc(OC)cc1C(F)(F)F	92
CC(C)(C)P(=O)(NCc1ccccc1)c1ccccc1 (stereo unspecified)	107
COc1cc2c(c(OC)c1OC)-c1ccc(OC)c(=O)cc1[C@@H](NC(C)=O)CC2	100
NC(=O)c1ccccc1N=Cc1ccc(Br)s1	99
COc1cc(OC)cc([C@@H]2[C@@H](C(C)(C)C)C(C#N)(C#N)[C@H]3c4ccccc4C=CN23)c1	98
c1ccc2c(c1)nc(N1CCCC1)n2CCN1CCCCC1	90
O=C(/C=C(\O)c1ccccc1)C(=O)Nc1ccccc1	101
O=C(CC(Cc1ccccc1)C(=O)O)Nc1cccc(C(F)(F)F)c1 (stereo unspecified)	100
COc1cc(/C=C/C(=O)N2CCC(C)CC2)ccc1OCc1ccccc1	100
Next part.
SMILES	VACV E9 pol inh
O=C(CC1CCCCC1)Nc1nc2ccccc2s1	103
O=c1cc(-c2c(F)c(F)c(F)c(F)c2F)oc2ccccc12	101
CCc1oc2ccccc2c1C(=O)c1ccc(OC(C)=O)cc1	101
CC(C)NCC(O)c1ccc(N)c(C#N)c1 (stereo unspecified)	102

Not all compounds are listed; count on the stated rates, not on these rows.
